Compound activity as filed in PubChem BioAssay.
GLA inh pH 4.5 = qHTS Assay for Inhibitors of Human alpha-Galactosidase at pH 4.5 | Alpha-galactosidase A (Homo sapiens), P06280 | purified enzyme, 4-MU-alpha-Gal fluorescence, pH 4.5 | activity change, negative = inhibition, % at 105 µM | 230,000 tested, under 10 active; inconclusive = small, poorly fitted or top-dose-only inhibition, or a rising curve; inactive = flat fitted curve, though single readings scatter; no compound was filed as active;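 note: 0% = full activity with enzyme and -100% = basal without enzyme; dose as in the result columns while the protocol names 77 µM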
Target sequence (P06280 whole entry, looked up): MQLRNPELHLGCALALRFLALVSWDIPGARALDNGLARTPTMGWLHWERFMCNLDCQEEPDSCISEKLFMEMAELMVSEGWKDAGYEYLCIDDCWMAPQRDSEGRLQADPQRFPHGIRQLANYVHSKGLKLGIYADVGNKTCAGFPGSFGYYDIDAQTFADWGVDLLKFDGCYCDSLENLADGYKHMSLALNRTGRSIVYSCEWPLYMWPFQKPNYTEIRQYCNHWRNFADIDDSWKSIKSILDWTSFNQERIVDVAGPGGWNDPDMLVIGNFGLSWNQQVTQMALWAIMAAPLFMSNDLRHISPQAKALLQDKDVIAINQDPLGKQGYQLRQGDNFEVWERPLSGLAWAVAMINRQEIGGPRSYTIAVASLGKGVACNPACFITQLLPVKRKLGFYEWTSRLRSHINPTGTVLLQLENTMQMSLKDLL
Rango release inh = qHTS Assay for Inhibitors of RanGTP induced Rango (Ran-regulated importin-beta cargo) - Importin beta complex dissociation; Snurportin-1 (Homo sapiens) + GTP-binding nuclear protein Ran (Homo sapiens) + Importin …; Biochemical FRET Rango-importin beta, RanGTP-induced dissociation; Potency, µM (titrated, usually from 46.1 µM), inactives show at the highest dose activity change, negative = inhibition; 340,000 tested, 0.071% active; AID 540253, 2011; active means falling FRET ratio curve, often poorly fitted, with flat reads before Ran was added; inconclusive means other falling curves, or compound fluorescence or quenching; inactive means flat or rising ratio curve;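 note: potency is the fitted concentration of half-maximal effect; % of control where 0% means no effect; nearly all actives have a fitted effect of over 45% in size; -100% = wells without RanGTP and RCC1; the record marks most hits as doubtful in a second field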
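Rango (0.1 uM)–importin beta (0.25 uM) complex; RanGTP-RCC1 trigger; 45 min RT; CFP/YFP FRET read.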
Rango complex inh = qHTS Assay for Inhibitors of Rango (Ran-regulated importin-beta cargo) - Importin beta complex formation; Importin subunit beta-1 (Homo sapiens), Q14974; Rango CFP/YFP FRET sensor + importin beta, 45 min; Potency, µM (series often up to 92.2 µM), for inactives: at the highest dose inhibition of complex formation; 340,000 tested, 0.031% active; AID 540263, 2011; active = rising FRET ratio curve, often small or poorly fitted; inconclusive = mostly compound fluorescence or quenching in the first reads; inactive = flat curves in all reads;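 note: potency is the fitted concentration of half-maximal effect; 0% = DMSO wells and 100% = buffer wells lacking importin beta; nearly all actives have a fitted effect of over 15% in size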
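FRET biosensor Rango (snurportin 1 IBB between N-terminal EYFP and C-terminal Cerulean), 50 nM in PBS/1 mM DTT/0.02% Tween-20/0.1% BSA, preincubated 5 min RT with compound; 0.125 microM importin beta added, 45 min RT, CFP/YFP FRET ratio read.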
miR-21 reporter = qHTS Assay for Modulators of miRNAs and/orActivators of miR-21 | HeLa miR-21 FLuc reporter, luciferase, 48 h | Potency, µM (series often up to 38.3 µM), for inactives: at the highest dose reporter change, positive = more light | 340,000 tested, under 10 active; active = well fitted rising curve with a large enough effect; inconclusive = small, poorly fitted or top-dose-only effect; inactive = no such curve, though single readings can be large or run the other way;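 note: % of control where 0% means no effect; miR-21 action dims this reporter so a rising signal means less miR-21 action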
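HeLa cells endogenously expressing miR-21, stably carrying CMV-driven firefly luciferase with a downstream miR-21 binding site, 2000 cells/well. Titrations up to approximately 40 uM, 48 hours; luciferase luminescence read.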
The depositor's hits bear a star; ? = inconclusive; · = not tested or not shown; & = joins results of further samples. An excerpt, so the mix of outcomes need not match the whole.

cpd	Structure	GLA inh pH 4.5	Rango release inh
1	CCc1nnc(NS(=O)(=O)c2ccc(N=Cc3c(C)[nH]n(-c4ccc(C)c(C)c4)c3=O)cc2)s1	-7	-1%
2	CCN(CC)S(=O)(=O)c1ccc(N2CCCC2)c(NS(=O)(=O)c2cccs2)c1	4	0%
3	CCCn1c(N)c(Sc2ccccc2[N+](=O)[O-])c(=O)n(CCC)c1=O	·	22%
4	CNC(=S)N1CCN(c2cccc(OC)c2)CC1	8	-14%
5	CC(NC(=O)c1ccc(C#N)cc1)C1CC2CCC1C2 (stereo not given)	·	1%
6	CC(NC(=O)Cc1ccc(S(=O)(=O)N2CCOCC2)s1)c1ccc(Cl)c(Cl)c1 (stereo not given)	·	-7%
7	Cc1ccc(/C=C/C(=O)O)cc1S(=O)(=O)N(C)CCO	-2	1%
8	COc1ccc(Cc2nc3c4c(ncn3n2)Oc2c(ccc3ccccc23)C4c2ccc(OC)c(OC)c2)cc1 (stereo not given)	4	5%

cpd	Rango complex inh	miR-21 reporter
1	1.9%	-21%
2	-0.4%	0%
3	-1.5%	0%
4	0.3%	-5%
5	-0.9%	-1%
6	1.0%	·
7	-0.5%	-4%
8	?	-4%

Additional results.
cpd	Structure	GLA inh pH 4.5	Rango release inh
9	C(#Cc1ccccc1)Cn1nnc2ccccc21	3	16%
10	N#CCC(=O)Nc1ccc(C(=O)OCC(=O)Nc2ccccc2Sc2ccccc2)cc1	4	0%
11	COC(=O)c1cn(C(=O)c2ccc(C)cc2C)c2ccccc12	1	12%
12	O=C(O)CSC(C(=O)Nc1ccc(Br)cc1)c1ccccc1 (stereo not given)	5	7%
13	COc1ccc(NC(=O)C2=CC(c3ccc(OC)cc3)=NS(=O)(=O)N2C)cc1	·	5%
14	O=C(COC(=O)/C=C/c1ccccc1[N+](=O)[O-])NNC(=O)c1ccc(F)cc1	·	-1%
15	C/C(=N\OCc1nc2ccccc2c(=O)n1/N=C/c1cc(C)cc([N+](=O)[O-])c1O)c1ccccc1	-23	2%
16	Cc1ccc(-c2c[n+](CC(=O)Nc3nc(-c4ccccc4)cs3)c3n2CCC3)cc1	-12	-22%

cpd	Rango complex inh	miR-21 reporter
9	-6.8%	-67%
10	4.3%	2%
11	2.0%	0%
12	-0.1%	-1%
13	-0.5%	3%
14	-4.1%	·
15	2.4%	-19%
16	-3.0%	7%

Going on with the list:
cpd	Structure	GLA inh pH 4.5	Rango release inh
17	CCCCN(C)Cc1c(C)[nH]c2ccc(Cl)cc2c1=O	-7	7%
18	Cn1c(Cn2c(=O)sc3ccccc32)nnc1SCC(=O)NCCc1ccccc1	-1	-10%
19	Cc1cc(NC(=O)CSc2nc3ccccc3c(=O)n2C2CCCC2)no1	3	1%
20	COc1ccc(NC(=O)N(C)C[C@H]2Oc3c(NC(=O)c4nc5ccccc5s4)cccc3C(=O)N([C@@H](C)CO)C[C@H]2C)cc1	·	1%
21	COc1ccc(-c2cc(=O)oc3c(C)c(OC(=O)c4cccs4)ccc23)cc1	-8	-20%
22	Cc1ccccc1NC(=O)CSc1nnc(C)c(=O)[nH]1	-5	21%
23	Cc1ccc(NS(=O)(=O)c2ccc(NC(=O)c3ccccc3C(=O)O)cc2)c(C)c1	·	7%
24	CCCCCC(=O)Nc1ccc(N2CCOCC2)c(S(=O)(=O)Nc2ccc(OC)cc2)c1	·	7%

cpd	Rango complex inh	miR-21 reporter
17	2.3%	-3%
18	0.9%	-5%
19	-2.9%	24%
20	-1.7%	·
21	-0.3%	-8%
22	-3.0%	10%&0%
23	-0.7%	·
24	1.8%	·

New compounds follow
cpd	Structure	GLA inh pH 4.5	Rango release inh
25	CC1=NNC(=O)C1C(c1ccc(Cl)cc1)C(C#N)C#N (stereo not given)	-2	1%
26	COc1ccc(/C=C2\Sc3ccc(C(=O)N4CCOCC4)cc3N(C)C2=O)cc1	·	-21%
27	Cc1cc(NC(=O)c2cc(-c3cccs3)on2)nn1Cc1ccc(Cl)cc1	5	6%
28	COc1ccc2cc(CN(CC3CCCO3)S(=O)(=O)c3ccccc3Cl)c(=O)[nH]c2c1 (stereo not given)	-9	4%
29	C=C1CCN(C(Cc2ccccc2)C(=O)OC)S(=O)(=O)c2ccc(F)cc21 (stereo not given)	4	?
30	CCOC(=O)N/N=C/c1ccc(N(CC)CC)cc1O	4	-19%
31	COc1cccc(C(=O)OCC(=O)NCC2CCCO2)c1 (stereo not given)	·	11%
32	O=C(COc1ccc(/C=N/NC(=O)c2ccc(O)cc2)cc1)Nc1cccc([N+](=O)[O-])c1	-2	12%

cpd	Rango complex inh	miR-21 reporter
25	-2.4%	1%
26	?	-3%
27	-0.6%	0%
28	-2.9%	9%
29	?	2%
30	?	-20%
31	-2.2%	·
32	?	-11%

Continued.
cpd	Structure	GLA inh pH 4.5	Rango release inh
33	O=C(c1ccc(O)cc1)c1ccc(O)cc1O	-5	-1%
34	COc1ccccc1-c1noc2ncnc(Nc3ccccc3C)c12	·	-11%
35	Cc1ccc(S(=O)(=O)N2CCN(C(=O)c3ccccn3)CC2)c(C)c1	7	-11%
36	Cc1cccc(Cn2c(SCCO)nc3c2c(=O)n(C)c(=O)n3C)c1	-1	10%
37	COc1ccccc1NC(=O)c1ccc(Cl)c(S(=O)(=O)N2CCCCC2)c1	·	0%
38	CCN1CCN(S(=O)(=O)c2c[nH]c(C(=O)OC)c2)CC1	·	0%
39	CCN(CC1CCCN(CCc2cccc(OC)c2)C1)C(=O)c1ccoc1 (stereo not given)	·	-16%
40	COc1ccccc1CNC(=O)COC(=O)C1CCN(S(=O)(=O)c2c(Cl)cccc2Cl)CC1	·	-1%

cpd	Rango complex inh	miR-21 reporter
33	-2.7%	-28%
34	1.5%	1%
35	-2.6%	-1%
36	-2.7%	-3%
37	0.7%	10%
38	-0.8%	-1%
39	1.5%	-2%
40	-0.2%	·

Sorted by heavy-atom count (rising): part of the list above
cpd	Structure	GLA inh pH 4.5	Rango release inh
33	O=C(c1ccc(O)cc1)c1ccc(O)cc1O	-5	-1%
38	CCN1CCN(S(=O)(=O)c2c[nH]c(C(=O)OC)c2)CC1	·	0%
31	COc1cccc(C(=O)OCC(=O)NCC2CCCO2)c1 (stereo not given)	·	11%
34	COc1ccccc1-c1noc2ncnc(Nc3ccccc3C)c12	·	-11%
27	Cc1cc(NC(=O)c2cc(-c3cccs3)on2)nn1Cc1ccc(Cl)cc1	5	6%
28	COc1ccc2cc(CN(CC3CCCO3)S(=O)(=O)c3ccccc3Cl)c(=O)[nH]c2c1 (stereo not given)	-9	4%
32	O=C(COc1ccc(/C=N/NC(=O)c2ccc(O)cc2)cc1)Nc1cccc([N+](=O)[O-])c1	-2	12%
40	COc1ccccc1CNC(=O)COC(=O)C1CCN(S(=O)(=O)c2c(Cl)cccc2Cl)CC1	·	-1%

cpd	Rango complex inh	miR-21 reporter
33	-2.7%	-28%
38	-0.8%	-1%
31	-2.2%	·
34	1.5%	1%
27	-0.6%	0%
28	-2.9%	9%
32	?	-11%
40	-0.2%	·

The list continues.
cpd	Structure	GLA inh pH 4.5	Rango release inh
41	Cn1c(N)c(C(=O)COC(=O)c2ccc([N+](=O)[O-])o2)c(=O)n(C)c1=O	9	9%
42	O=C1NC(=O)C(Cc2ccc(O)cc2)N1 (stereo not given)	·	5%
43	CCOC(=O)C1=C(O)C(=O)NC(c2ccccc2)=C(OC2CCCCC2)C1	7	-2%
44	Cc1cc(OCC(=O)Nc2cc(S(=O)(=O)N3CCOCC3)ccc2N2CCCC2)ccc1C(C)C	·	9%
45	COc1ccc(O)c(-c2cc(C(F)(F)C(F)F)nc(-c3ccccc3)n2)c1	-1	1%
46	COc1cccc(-n2cnc3sc(C)cc3c2=O)c1	-2	4%
47	CSc1cccc(NC(=S)Nc2ccc(F)cc2)c1	4	1%
48	CCC(C)(C)c1ccc(Oc2ccc(N)cc2)cc1	-9	27%

cpd	Rango complex inh	miR-21 reporter
41	4.8%	13%
42	0.7%	·
43	0.6%	-19%
44	-3.5%	·
45	0.0%	-1%
46	-0.4%	-42%
47	-1.2%	-11%
48	2.2%	?

Further compounds.
cpd	Structure	GLA inh pH 4.5	Rango release inh
49	Cc1csc(C(=O)O)c1-n1cccc1	2	-11%
50	COc1ccc(-c2cc(C(=O)Nc3c(C)nn(Cc4ccccc4Cl)c3C)no2)cc1OC	-6	1%
51	Cc1ccc(-c2nn(-c3ccccc3)cc2C(=O)N2CCOCC2)cc1C	1	-14%
52	Cc1onc(-c2ccccc2Cl)c1C(=O)Nc1ccccc1C(N)=O	-2	-19%
53	COc1ccc(-c2c[n+]3c(n2-c2c(C)n(C)n(-c4ccccc4)c2=O)CCCCC3)cc1	1	-7%
54	O=C(c1ccc(Cl)cc1)N1CCN(C(=O)c2ccco2)CC1	5	-6%
55	NC(=O)C1CCCN(C(=S)Nc2cccc3ccccc23)C1 (stereo not given)	11	-4%
56	COc1cc(CCCN2C(=S)NC[C@@H]2c2ccccc2)cc(OC)c1OC	-16	-1%

cpd	Rango complex inh	miR-21 reporter
49	-1.5%	-4%
50	0.6%	3%
51	-0.4%	-12%
52	1.0%	16%
53	-3.3%	-1%
54	-0.1%	1%
55	0.7%	1%
56	-0.6%	16%

(list continues)
cpd	Structure	GLA inh pH 4.5	Rango release inh
57	O=C1c2ccccc2C(=O)N1CCc1csc(-c2ccc(F)cc2)n1	-12	7%
58	Cn1nccc1C(=O)Nc1ccn(C23CC4CC(CC(C4)C2)C3)n1	-2	1%
59	CCCCn1c(SCC(=O)NC2CC(C)(C)NC(C)(C)C2)nc2cc(S(N)(=O)=O)ccc21	-9	13%
60	c1ccc(C(c2nnnn2Cc2ccco2)N2CCN(C3CCCC3)CC2)cc1 (stereo not given)	-4	1%
61	Cc1ccc(/C=C2\CCn3c2nc2cc(C(=O)O)ccc2c3=O)c(C)c1	·	9%
62	CCOc1ccc(NC(=O)CN(C)C(=O)c2ccccc2-n2cnnn2)cc1OCC	·	-3%
63	O=C(C[C@H]1C/C=C\CC[C@@H](Cc2ccc(F)cc2)C(=O)OC[C@H]2CCCN2C1=O)NCCO	·	?
64	CN(c1ccccc1)S(=O)(=O)c1ccc(NC(=O)c2ccccc2C(=O)O)cc1	·	17%

cpd	Rango complex inh	miR-21 reporter
57	-3.0%	-17%
58	-3.4%	-16%
59	-0.3%	-2%
60	0.2%	-2%
61	2.3%	0%
62	1.8%	·
63	1.4%	·
64	3.8%	·

One compound at a time, as listed above. Values in the order: GLA inh pH 4.5 | Rango release inh | Rango complex inh | miR-21 reporter
Listed for CC(NC(=O)Cc1ccc(S(=O)(=O)N2CCOCC2)s1)c1ccc(Cl)c(Cl)c1 (stereo not given) = · | -7% | 1.0% | ·
Listed for CNC(=S)N1CCN(c2cccc(OC)c2)CC1 = 8 | -14% | 0.3% | -5%

(listing goes on)
cpd	Structure	GLA inh pH 4.5	Rango release inh
65	COc1ccc(N(CC(=O)NCc2ccco2)S(C)(=O)=O)cc1OC	9	-12%
66	CCOc1ccc(N(CC(=O)N2CCc3ccccc32)S(=O)(=O)c2c(C)noc2C)cc1	-7	31%
67	O=C(NCCc1nc(-c2ccccc2Cl)no1)C1CCCCC1	·	-9%
68	O=C(NCC(F)(F)F)Nc1cccnc1	-1	5%
69	CCOC(=O)c1cn2nc(Oc3ccccc3)ccc2n1	-7	-9%
70	COc1ccc(/C=C/C(=O)NC(=S)N2CCN(C)CC2)cc1	8	-9%
71	Nc1cc(=O)[nH]c(SCC(=O)Nc2cc(S(=O)(=O)N3CCCCCC3)ccc2Cl)n1	·	19%
72	CCCCn1c(=O)n(C)c(=O)c2c3c(sc21)COC(C)(C)C3	-3	1%

cpd	Rango complex inh	miR-21 reporter
65	-5.1%	0%
66	4.4%	0%
67	0.1%	·
68	5.6%	-1%
69	4.4%	-70%
70	-3.3%	-7%
71	1.6%	·
72	0.5%	0%
